Assay outcomes from PubChem BioAssay.
Rce1 inhib = yeast Rce1p protease inhibitors, primary screen, biochemical, fluorescence, cell-free homogeneous. CAAX prenyl protease 2 (Saccharomyces cerevisiae (strain ATCC 204508 / S288c)), Q03530. yeast membranes, quenched prenylated peptide cleavage fluorescence. calls only. 0.27% of 290,000 active. AID 2563, 2010;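 active = fall in fluorescence gain of 50% or more versus controls, with final raw signal at or below 3038400; inconclusive = same 50% fall but final raw signal above 3038400; inactive = fall in fluorescence gain under 50%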;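 also: plate controls were neutral control wells for no effect and wells lacking membranes for full effect; tested at 10 µM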
Env fusion inh = inhibitors of HIV-1 Env-driven cell-cell fusion, primary screen, HeLa-JRFL effector, CEM21 target cells, luciferase. inhibition, % at 12.3 µM. 1.1% of 360,000 active. AID 651610, 2012;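 active = mean replicate inhibition score of at least 50 and every replicate individually at or above 50; inconclusive = only one of the two criteria met; inactive = mean below 50 and not all replicates reaching 50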;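 also: 0% = plate neutral controls and 100% = maraviroc near 300 nM; one replicate is shown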
PABP FP inh = PABP poly(A) RNA binding inhibitors, primary screen, biochemical, fluorescence polarization, uHTS; inhibition, % at 35 µM; 1% of 290,000 active;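 active = 50% or more with normal probe brightness, or confirmed in later tests; inconclusive = above 50% with abnormal brightness, or retests that disagree; inactive = below 50% or failed in later tests; about a fifth of its hits are not listed in these tables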;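 also: calls also rest on retests at 20 µM and on dose response follow-up; controls were probe without protein and protein plus probe with vehicle; some compounds called inactive have numbers as strong as hits; many hits fall short of the cut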
Target sequence (P11940 whole entry, looked up): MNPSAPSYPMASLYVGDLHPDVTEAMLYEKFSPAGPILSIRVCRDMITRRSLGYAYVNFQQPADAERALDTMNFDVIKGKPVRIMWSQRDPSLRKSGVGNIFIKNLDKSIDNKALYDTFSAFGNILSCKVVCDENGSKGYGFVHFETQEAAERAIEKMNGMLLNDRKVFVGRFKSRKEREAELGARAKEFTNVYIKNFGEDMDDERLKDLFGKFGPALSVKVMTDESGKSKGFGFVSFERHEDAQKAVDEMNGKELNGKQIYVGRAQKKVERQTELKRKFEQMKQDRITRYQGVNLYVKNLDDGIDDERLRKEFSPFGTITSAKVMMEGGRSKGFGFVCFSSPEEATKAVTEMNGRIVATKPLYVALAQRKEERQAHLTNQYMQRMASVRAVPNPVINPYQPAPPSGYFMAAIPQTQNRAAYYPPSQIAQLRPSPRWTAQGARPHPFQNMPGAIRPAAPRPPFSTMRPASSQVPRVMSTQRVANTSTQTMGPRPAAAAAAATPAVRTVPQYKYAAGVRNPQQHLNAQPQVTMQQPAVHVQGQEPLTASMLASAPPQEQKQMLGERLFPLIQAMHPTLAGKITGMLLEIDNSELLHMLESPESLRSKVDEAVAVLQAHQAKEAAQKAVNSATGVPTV
eIF4H inh = human eIF4H binding inhibitors, primary screen, translation initiation inhibitor project, biochemical, uHTS, fluorescence polarization; inhibition, % at 35 µM; eIF4H fluorescence polarization binding assay; 0.94% of 290,000 active; AID 2012, 2009; Eukaryotic translation initiation factor 4H (Homo sapiens), Q15056;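 active = 50% or more with normal probe brightness, or confirmed in later tests; inconclusive = above 50% with abnormal brightness, or retests that disagree; inactive = below 50% or failed in later tests; about a fifth of its hits are not listed in these tables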;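 also: calls also rest on retests at 20 µM and on dose response follow-up; 0% = protein and probe with vehicle and 100% = probe without protein; strong numbers were not always called active; many hits fall short of the cut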
MT1-MMP act inh = blockers of MT1-MMP proenzyme processing, primary screen, HT1080 RFP-PRO-GFP cells, GFP/RFP fluorescence; GFP/RFP ratio fluorescence, overnight; percent of plate control window, DMSO zero; GFP/RFP ratio change, % at 20 µM; 0.061% of 360,000 active; AID 651647, 2012;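 active = GFP/RFP ratio change of at least 30% with cell ATP level not reduced by more than half and red fluorescence within 50% of control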; also: strong numbers were not always called active
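system = RFP-PRO-GFP reporter HT1080 cells | dosing = 20 µM single dose, 1% DMSO | timing = overnight cell settling, then overnight compound exposure, 37 °C, 5% CO2 | read-out basis = GFP/RFP fluorescence ratio | controls = DMSO and RFP-L50D-GFP cell wells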
CSC inhib = cancer stem cell viability inhibitors, primary screen, luminescence. 1.1% of 300,000 active. AID 2717, 2010. inhibition, % at 7.5 µM. cancer stem cell-like cells viability;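 active = mean at 75% or more and at least half the replicates too; inconclusive = mean and replicates disagree; tested in HMLE shEcad cells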;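 also: 0% = median of negative and 100% = median of positive control wells; the first replicate is given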
Yeast UUG start = modulators of yeast start codon fidelity, primary screen, whole organism, S. cerevisiae, single point, plate reader; activity score, % at 18.7 µM; 0.13% of 350,000 active; S. cerevisiae UUG-firefly luciferase reporter, luminescence/redox ratio; AID 602363, 2012;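 active = replicate mean at a twofold rise or more, about +100% in these data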;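 also: firefly luciferase made from a UUG start codon reports start codon fidelity; reporter light over untreated wells divided by growth signal over untreated wells; some hits fall short of that in this replicate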
MT1-MMP act inh RFP = second read-out of MT1-MMP act inh, no call of its own (marks repeat the call); RFP signal change, %; measured here: RFP expression control read;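 0 = vehicle wells; hits needed this value within 50% of zero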
An asterisk follows results filed as active; i = inactive; ? = inconclusive; . = not tested or not shown.

A first look (9 entries):
Structure	Rce1 inhib	Env fusion inh	PABP FP inh	eIF4H inh	MT1-MMP act inh	MT1-MMP act inh RFP	CSC inhib	Yeast UUG start
CN(CC(=O)OCC(=O)Nc1ccccc1)S(=O)(=O)c1ccc(Cl)cc1	i	-41.2	-1.8	-2.1	0.7	7.3	9.8	14.3
CCOc1ccccc1CN1CCN(C/C=C/c2ccc(OC)cc2)CC1CCO (configuration not stated)	i	1.0	-10.1	0.5	-1.0	-1.7	10.2	-1.5
O=C(CN1c2cccc3cccc(c23)S1(=O)=O)Nc1ccccc1Br	.	.	.	.	3.4	1.1	-9.3	-7.0
CC(=O)Nc1ccc(NC(=O)CS(=O)(=O)c2cn(CC(=O)N3CCCC3)c3ccccc23)cc1	i	-4.1	-2.6	-8.8	1.0	7.7	0.5	6.1
CCc1cc2c(-c3ccccc3)cc(=O)oc2cc1OC(C)C(=O)O (configuration not stated)	i	13.5	5.3	7.9	-4.0	1.6	-20.4	-8.9
CCOC(=O)C1CCCN(C(=S)Nc2ccc(OC)cc2)C1 (configuration not stated)	i	9.0	10.9	1.2	3.1	5.2	.	-27.7
Cc1ccc2nc(-c3ccco3)c(CC(C)(C)C)n2c1	.	-37.0	.	.	0.0	1.5	.	26.6
Cn1c(-c2ccccc2)c(C=O)c2ccccc21	i	-23.8	-1.8	3.5	-4.6	-0.9	2.7	.
O=C(NC1CCCCC1)N1CCC(c2nc3ccc(Cl)cc3[nH]2)CC1	i	9.8	5.4	2.0	19.0	5.5	.	-6.9

This part in full, previewed entries included:
Structure	Rce1 inhib	Env fusion inh	PABP FP inh	eIF4H inh	MT1-MMP act inh	MT1-MMP act inh RFP	CSC inhib	Yeast UUG start
CN(CC(=O)OCC(=O)Nc1ccccc1)S(=O)(=O)c1ccc(Cl)cc1	i	-41.2	-1.8	-2.1	0.7	7.3	9.8	14.3
CCOc1ccccc1CN1CCN(C/C=C/c2ccc(OC)cc2)CC1CCO (configuration not stated)	i	1.0	-10.1	0.5	-1.0	-1.7	10.2	-1.5
O=C(CN1c2cccc3cccc(c23)S1(=O)=O)Nc1ccccc1Br	.	.	.	.	3.4	1.1	-9.3	-7.0
CC(=O)Nc1ccc(NC(=O)CS(=O)(=O)c2cn(CC(=O)N3CCCC3)c3ccccc23)cc1	i	-4.1	-2.6	-8.8	1.0	7.7	0.5	6.1
CCc1cc2c(-c3ccccc3)cc(=O)oc2cc1OC(C)C(=O)O (configuration not stated)	i	13.5	5.3	7.9	-4.0	1.6	-20.4	-8.9
CCOC(=O)C1CCCN(C(=S)Nc2ccc(OC)cc2)C1 (configuration not stated)	i	9.0	10.9	1.2	3.1	5.2	.	-27.7
Cc1ccc2nc(-c3ccco3)c(CC(C)(C)C)n2c1	.	-37.0	.	.	0.0	1.5	.	26.6
Cn1c(-c2ccccc2)c(C=O)c2ccccc21	i	-23.8	-1.8	3.5	-4.6	-0.9	2.7	.
O=C(NC1CCCCC1)N1CCC(c2nc3ccc(Cl)cc3[nH]2)CC1	i	9.8	5.4	2.0	19.0	5.5	.	-6.9
CCS(=O)(=O)N1CCC(C(=O)Nc2ccccc2OC)CC1	i	-22.9	7.4	7.6	-4.5	0.9	-9.9	-14.4
O=C(NCCc1nnc2ccc(SCC(=O)N3CCOCC3)nn12)c1ccccc1	i	9.1	6.6	-0.9	-2.9	1.7	-4.0	-22.5
Cc1ccc(-c2ccc(CN3C(C(C)C)C(=O)N(Cc4cn(Cc5ccco5)nn4)CCS3(=O)=O)cc2)cc1 (configuration not stated)	.	12.6	.	.	1.6	-10.2	.	-17.8
CCCCc1cc(=O)oc2cc(O)cc(O)c12	?	1.5	0.6	-10.3	-4.1	-15.4	-0.6	-10.2
C=CCn1c(=N)n(CC(=O)OCC)c2ccccc21	i	.	9.4	5.1	-0.1	4.5	-4.0	19.4
O=C(COC(=O)CCNS(=O)(=O)c1ccccc1)NC(=O)c1ccccc1	i	2.5	.	.	0.6	4.2	-8.5	-5.8
CCCc1ccc(C(O)c2ncc(-c3cccc(F)c3)[nH]2)cc1 (configuration not stated)	.	36.3	.	.	-0.3	-1.9	.	-13.8
COc1cc(C(=O)N[C@H](C(=O)NC(C)C23CC4CC(CC(C4)C2)C3)C(C)C)cc(OC)c1OC (some centres not stated)	i	.	-3.8	2.5	-1.7	3.3	-0.9	-3.3
COc1cccc(CNc2ccc(F)c(Cl)c2)c1	i	.	12.8	-6.8	1.8	-0.5	17.4	.
Cc1ccccc1OCC(=O)NNC(=O)c1ccoc1C	.	.	.	.	-1.8	2.7	-8.9	6.7
COc1cc([N+](=O)[O-])ccc1NC(=S)N1CCOCC1	i	-17.5	0.7	-4.3	2.1	4.8	-4.3	-17.1

New compounds follow
Structure	Rce1 inhib	Env fusion inh	PABP FP inh	eIF4H inh	MT1-MMP act inh	MT1-MMP act inh RFP	CSC inhib	Yeast UUG start
C=C(C)COc1ccc2c3c(c(=O)oc2c1OCC(=C)C)CCC3	i	.	-6.9	0.0	-4.9	1.8	10.9	-4.8
CCOC(=O)c1ccc(CSc2nncn2N)o1	i	2.0	1.1	-8.0	-1.6	5.9	0.8	-8.8
CCOc1ccc(S(=O)(=O)NCCC(=O)NCC(C)(C)N2CCOCC2)cc1	i	.	.	.	2.4	-1.3	-0.5	-12.7
COc1cccc(CNC(=O)CCSCc2ccccc2F)c1	i	-47.4	5.8	4.5	-2.2	3.8	-10.2	.
COc1ccc(CCN2C(=O)CC(NCc3ccc4c(c3)OCO4)C2=O)cc1OC (configuration not stated)	i	.	-0.8	3.4	1.8	-0.7	19.1	-14.7
NC(=O)C1CCN(c2nc(-c3ccc4ccccc4c3)cs2)CC1	.	3.4	.	.	1.7	6.1	-17.0	-19.2
COc1cc(C(=O)NNC(=O)c2ccc3ccccc3n2)cc(OC)c1OC	.	.	.	.	3.2	1.0	33.3	7.1
CCN(CC(=O)NCc1ccc(F)cc1)C(=O)CN1CCN(c2ccccc2OC)CC1	.	3.8	6.4	3.0	-1.7	1.6	-9.8	-2.0
COc1ccccc1C(=O)N1CCNC(=O)C1CC(=O)Nc1cccc(C)c1 (configuration not stated)	i	.	-0.3	1.7	-1.5	6.6	-8.0	-18.4
NS(=O)(=O)c1ccc(NC(=S)N2CCN(c3cccc(Cl)c3)CC2)cc1	i	14.4	13.3	8.3	-1.0	-11.3	25.1	-16.0
O=C(NCCCCCCNC(=O)c1ccncc1)c1ccncc1	i	-21.4	0.0	-5.9	2.7	3.5	-10.6	-11.3
Cc1ccc(/C([O-])=C(/C(=S)NCc2ccccc2)[n+]2cccc(CO)c2)cc1[N+](=O)[O-]	.	-0.3	-8.8	4.3	1.3	8.7	.	-13.7
C(=N\N1CCN(Cc2cccc3ccccc23)CC1)/c1cccs1	i	11.9	7.3	6.3	5.5	-5.5	27.2	-7.4
CC(C)Oc1ccc(CCC(=O)NNC(=S)Nc2ccccc2)cc1	i	6.9	-9.9	9.1	5.2	-6.2	.	-32.2
CCC(=O)Nc1sc2c(c1C(N)=O)CCC2	i	-0.2	1.6	-5.8	-3.0	1.6	-15.7	.
CCN1CCN(CC2CC3C=CC2C3)CC1 (configuration not stated)	i	2.9	2.6	-1.0	3.8	4.6	3.1	-5.3
COc1ccc(-c2nc3c(C)cc(Br)cn3c2CC(C)(C)C)cc1OC	.	2.3	.	.	-2.7	-1.0	.	49.8
COc1ccc(C2=NOC(C(=O)NCc3ccccn3)C2)cc1 (configuration not stated)	.	-19.7	-2.6	1.1	0.4	-3.9	1.3	-16.7
COc1ccccc1N1CC(C(=O)NCC2COc3ccccc3O2)CC1=O (configuration not stated)	.	.	.	.	0.1	3.6	-2.3	-2.5
COc1cccc(COc2ccc3c(C)c(Cc4ccccc4)c(=O)oc3c2)c1	i	.	.	.	11.9	7.2	10.9	-8.6

The listing continues.
Structure	Rce1 inhib	Env fusion inh	PABP FP inh	eIF4H inh	MT1-MMP act inh	MT1-MMP act inh RFP	CSC inhib	Yeast UUG start
COc1ccc(CCNC(=O)CCOc2ccc(C(C)(C)C)cc2)cc1OC	i	-6.2	26.0	3.8	1.6	-4.1	-6.1	-24.8
COc1ccc(CCN(C)C(=O)CCNS(=O)(=O)c2ccccc2C(F)(F)F)cc1OC	.	.	.	.	-0.3	-2.4	4.7	-16.9
Cc1cc(Cl)cc2sc(=S)[nH]c12	.	-11.3	.	.	-2.4	5.4	.	-20.2
O=[N+]([O-])c1cc(NS(=O)(=O)c2ccc(Cl)nc2)ccc1Cl	i	12.1	.	.	7.3	-17.7	21.9	-13.0
Cc1ccc(OCCn2c(CCNC(=O)C(C)C)nc3ccccc32)cc1	i	.	-10.0	-4.4	-0.5	-5.6	2.2	-1.8
CCOc1ccc(-c2cc(C(=O)N3CCN(c4ccccn4)CC3)c3ccccc3n2)cc1	i	.	-1.5	-2.7	-2.7	-13.5	-6.6	-6.1
CN1CC(c2ccccc2)C2(SC(=S)N(Cc3ccco3)C2=O)C12C(=O)Nc1ccccc12 (configuration not stated)	i	77.4*	-5.2	-6.0	-36.8	-26.8	104.5*	4.0
Cc1ccc(-c2nnc(N3CCN(c4ccccn4)CC3)c3ccccc23)cc1	i	.	7.5	-0.4	-13.8	-21.5	14.5	-14.3
CCc1ccc(C2C(C(C)=O)=C(C(=O)OC)Nc3nnnn32)cc1 (configuration not stated)	i	32.9	-5.1	0.4	-9.1	-19.9	-4.4	-7.9
S=C(NCCCN1CCOCC1)Nc1ccc(-c2nc3ccccc3[nH]2)cc1	i	5.5	34.4	-9.5	1.3	-9.7	-49.0	.
CCSc1nc2c(c(=O)[nH]c(=O)n2C)n1CC(O)COc1ccccc1 (configuration not stated)	i	22.7	4.7	5.4	1.0	-1.6	-6.5	.
CN(Cc1nc2ccccc2n1C)C(=O)c1ccco1	i	-36.4	6.0	-9.9	4.0	4.0	-0.3	-20.8
CC(C)NC(=O)C1(C)CCCN1C/C=C/c1ccccc1 (configuration not stated)	.	4.0	.	.	3.1	5.7	.	-3.0
O=C(c1ccco1)N1CCc2[nH]nc(-c3ccc(Cl)cc3)c2C1	i	8.4	1.4	-10.3	-3.2	-9.7	6.0	-17.9
CSCCC(NC(=O)COc1ccccc1)C(=O)N(C)CC(=O)Nc1ccc(Cl)cc1 (configuration not stated)	.	23.6	.	.	3.5	-1.9	.	-5.6
CC(C)C[C@H]1CNC(=S)N1CC1CCCN1C[C@H](CC(C)C)N1C[C@H](CC(C)C)N(CCc2ccccc2)C1=S (some centres not stated)	.	31.8	.	.	1.5	1.6	.	13.6
COCCn1c(C)cc(O)c(C(=O)Nc2cccc(Cl)c2)c1=O	i	-5.2	0.5	-6.1	-0.9	-3.5	-2.4	-17.7
CCOC(=O)C1=NOC(Cn2cc(C(C)=O)c(=O)[nH]c2=O)C1 (configuration not stated)	i	3.2	2.8	-13.1	-7.1	-1.5	-5.9	.
